# LANA-H2A inh – blockers of LANA interaction with H2A/H2B – biochemical, FP readout, HTS, primary screen. cell-free LANA-H2A/H2B peptide, fluorescence polarization. Protein LANA1 (Human herpesvirus 8 type P (isolate GK18)), Q9QR71. 0.6% of 320,000 active. inhibition, % (no concentration beside the values); in the data active = inhibition mostly above about 10%, no sharp cut-off; inactive = mostly below about 6.7%;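 also: stock transfer was 7.5 nL into about 10 µL; 0% = median of vehicle wells and 100% = median of positive control wells; one replicate is shown; the record names a cut of 25% in any replicate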
# Target sequence (Q9QR71 whole entry, looked up): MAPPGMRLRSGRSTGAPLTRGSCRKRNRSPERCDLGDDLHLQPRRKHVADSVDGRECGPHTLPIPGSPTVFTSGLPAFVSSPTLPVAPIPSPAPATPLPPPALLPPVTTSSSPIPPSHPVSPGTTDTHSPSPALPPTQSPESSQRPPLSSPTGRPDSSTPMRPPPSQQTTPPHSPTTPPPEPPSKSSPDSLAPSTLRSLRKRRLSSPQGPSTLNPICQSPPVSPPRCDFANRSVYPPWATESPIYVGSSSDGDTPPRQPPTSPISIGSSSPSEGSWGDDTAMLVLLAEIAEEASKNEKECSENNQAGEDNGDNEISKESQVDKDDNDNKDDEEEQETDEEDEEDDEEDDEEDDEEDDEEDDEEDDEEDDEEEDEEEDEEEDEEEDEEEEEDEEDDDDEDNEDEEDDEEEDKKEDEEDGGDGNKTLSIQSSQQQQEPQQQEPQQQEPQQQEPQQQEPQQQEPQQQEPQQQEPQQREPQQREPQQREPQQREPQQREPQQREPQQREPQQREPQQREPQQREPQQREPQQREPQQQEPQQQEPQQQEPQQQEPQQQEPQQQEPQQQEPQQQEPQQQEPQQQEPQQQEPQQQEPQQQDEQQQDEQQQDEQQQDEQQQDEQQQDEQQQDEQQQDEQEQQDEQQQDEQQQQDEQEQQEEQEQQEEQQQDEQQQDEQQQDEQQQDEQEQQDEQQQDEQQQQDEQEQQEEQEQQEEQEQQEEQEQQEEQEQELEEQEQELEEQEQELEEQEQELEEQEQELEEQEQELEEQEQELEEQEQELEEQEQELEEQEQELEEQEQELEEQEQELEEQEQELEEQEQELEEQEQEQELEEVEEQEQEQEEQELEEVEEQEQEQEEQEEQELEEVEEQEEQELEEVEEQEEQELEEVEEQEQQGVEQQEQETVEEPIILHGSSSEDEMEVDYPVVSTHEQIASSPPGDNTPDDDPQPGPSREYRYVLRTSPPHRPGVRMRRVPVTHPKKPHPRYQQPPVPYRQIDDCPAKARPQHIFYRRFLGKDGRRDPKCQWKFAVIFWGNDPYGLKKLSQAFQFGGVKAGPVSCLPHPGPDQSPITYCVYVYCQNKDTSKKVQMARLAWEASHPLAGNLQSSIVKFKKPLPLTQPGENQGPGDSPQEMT
# Vif A3G – inhibitors of Vif binding to APOBEC3G peptide, primary screen, biochemical, TR-FRET, GST-Vif 1-94, biotin-A3G peptide, dose response retest (AID 1117319). Virion infectivity factor (Human immunodeficiency virus type 1 group M subtype B (isolate …. TR-FRET GST-Vif / biotin-A3G peptide binding; higher % means a stronger effect; test concentration not given here; strong numbers were not always called active. inhibition, %; hits with a dose series show IC50 in µM. 0.57% of 260,000 active;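 active = above the screen mean plus three standard deviations and confirmed in dose response; inconclusive = results disagree or hit not tested in dose response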;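 also: Vif residues 1-94 fused to GST binding biotinylated APOBEC3G peptide 110-148; 0% = full assay without inhibitor and 100% = GST in place of GST-Vif; retest series ran down from 100 µM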
# Bfl-1 A1 inh – caspase 3/7 activation in MEF A1-2A-BIM cells, primary screen, A1 inhibitor project, cell-based, luminescence, HTS. 0.066% of 330,000 active. Caspase-Glo 3/7 luminescence, 3 h; percent of clofoctol response, vehicle zero. AID 2462, 2010. caspase activation, % (no concentration beside the values);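 active = over half of replicate activation scores above 10%, or exactly half above 10 with the replicate mean above 10; inconclusive = replicate mean below 10 yet half the replicates above 10; inactive = over half of replicates below 10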;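 also: wells of about 30 µL received 50 nL stock; many hits fall short of the cut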
# Beta cell apopt – inhibitors of cytokine-induced beta cell apoptosis, primary screen, luminescence; INS-1E cytokine-induced death, ATP luminescence, 48 h; percent of positive-control rescue, neutral wells zero; protection from apoptosis, % (test concentration not listed); 0.8% of 300,000 active; AID 435005, 2010;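 active = all replicates at 75% or more, or half of them and the mean; inconclusive = half reach 75% but not the mean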;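 also: 0% = cytokine-treated negative control wells and 100% = positive control rescue; higher means more ATP so stronger rescue from cytokine killing; wells of about 40 µL received 100 nL stock; the first replicate is given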
# RanGTP-Impb inh – inhibitors of RanGTP-importin-beta interaction, primary screen, biochemical, FRET, CFP-Ran, YFP-importin-beta, homogeneous; Ran GTPase (GTP-bound) - importin-beta complex; cell-free CFP-Ran/YFP-importin-beta FRET ratio; inhibition, % (concentration not given with the values); 1.1% of 300,000 active; AID 2216, 2009;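 active = most replicates above 15%; inconclusive = exactly half above 15%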;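 also: 0% = DMSO wells and 100% = Ran loaded with GDP instead of GTP; wells of about 40 µL received 100 nL stock; the first replicate is given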
# MLL AF4-AF9 inh – inhibitors of AF4 peptide binding to AF9, primary screen, biochemical, AlphaScreen, biotin-AF4 peptide, FLAG-AF9, single point. 0.47% of 350,000 active. inhibition, % at 10 µM;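 active = every replicate reaching a set inhibition limit, whatever the replicate mean, cut at about 25% in these data; inconclusive = mean inhibition reaches that limit but some replicates miss it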;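 also: 0% = plate neutral control median and 100% = total signal loss; the record names both 10 and 1 µM as test concentration; the first replicate is given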
# Calb FLC – C. albicans growth inhibition with fluconazole, primary screen, CaCi-2 strain, Alamar Blue fluorescence; 0.57% of 300,000 active; growth inhibition, % (test concentration not listed); C. albicans CaCi-2 (fluconazole-resistant clinical isolate) + fluconazole, 48 h;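 active = most replicates above 75%; inconclusive = exactly half above 75%; inactive = most below 75%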;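 also: all wells also contain fluconazole at 8 µg/ml as a sub-toxic cotreatment; 0% = median of DMSO wells and 100% = median of geldanamycin control wells; wells of about 8 µL received 7.5 nL stock; the first replicate is given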
# T cruzi inh – inhibitors of intracellular T. cruzi growth, primary screen, luminescence, NIH3T3 host cells | T. cruzi beta-gal in NIH3T3, 90 h | inhibition, % (test concentration not listed) | 1.4% of 300,000 active;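 active = mean inhibition across valid replicates above about 55%, limit read from the data; inconclusive = mean below that limit but half or more replicates reach it; inactive = mean below it, under half of replicates reach it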;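 also: signal also drops with host cell toxicity which is not excluded here; 0% = plate median of DMSO wells and 100% = zero luminescence signal; higher percent means less beta-gal luminescence so fewer parasites; stock transfer was 50 nL into about 50 µL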
# * = called active by the depositor; i = inactive; ? = inconclusive; / = not tested or not shown; & = joins results of further samples.
SMILES,LANA-H2A inh,Vif A3G,Bfl-1 A1 inh,Beta cell apopt,RanGTP-Impb inh,MLL AF4-AF9 inh,Calb FLC,T cruzi inh
COc1cc2c(cc1OC)CN(C(=O)c1cc(=O)c3ccccc3o1)CC2,0.1,24%,0.5,2,1.1,/,18,-13
Cc1ccc(C)c(NC(=O)CN2C(=O)CNC2=O)c1,-1.6,9%,0.5,-4,1.3,/,6,-11
CCc1ccc(NC(=O)C(C)OC(=O)c2ccc(N3CCCC3)c([N+](=O)[O-])c2)cc1 (stereo not given),-5.9,20%,-0.3,-7,0.0,-4.3,?,0
O=C(COC(=O)c1ccc(-n2cnnn2)cc1)Nc1cc(Cl)ccc1F,1.9,7%,0.3,2,/,-0.5,/,/
COc1ccc(C2c3ccc(O)cc3Oc3ncn4nc(-c5ccncc5)nc4c32)cc1OC (stereo not given),1.1,-1%,-0.2,10,3.3,13,1,-17
CC(C)[C@H](NC(=O)OCc1ccccc1)C(=O)OCc1ccccc1,-2.3,0%,0.3,-4,-1.2,-12,-2,10
O=C(O)c1cccc(S(=O)(=O)N2CCSCC2)c1,1.7,0%,0.0,-3,2.4,/,-13,-2
Cc1ccc(S(=O)(=O)CCC(=O)NCCN2C(=O)S/C(=C\c3ccccc3)C2=O)cc1,2.2,9%,0.5,-10,2.8,/,?,6
CCn1c(SCc2nc3cc(OC)c(OC)cc3c(=O)[nH]2)nc2ccccc21,-3.0,-7%,-0.8,-5,1.4,-1.4,12,4
Cc1nc2ccc(S(=O)(=O)NCC(=O)N3CCN(c4ccccc4)CC3)cc2s1,2.6,5%,0.8,0,-2.2,/,10,-2
NC(=O)C1CCN(C(=O)CN(c2ccc3c(c2)OCCO3)S(=O)(=O)c2ccccc2)CC1,/,6%,0.7,-6,4.9,-15,1,-13
CCN(CC)C(=O)CSc1nc(-c2ccco2)cc(C(F)(F)F)c1C#N,1.4,0%,0.2,5,-2.8,/,5,3
Cc1c(Cl)cccc1NC(=O)c1ncn[nH]1,-1.4,9%,0.0,-2,1.9,-38,8,-3
COc1cc(/C=N/NC(=O)c2cccc(S(=O)(=O)N3CCOCC3)c2)cc(OC)c1O,-8.5,17%,-0.3,-8,0.1,-2.5,0,-13
Cc1cc(C(=O)OC(C)C(=O)NC2CCCCC2)c(C)o1 (stereo not given),5.8,-2%,2.5,3,/,0.9,/,/
Cn1cnnc1SCC(=O)Nc1cccc(S(=O)(=O)N2CCCCCC2)c1,/,/,0.9,-6,-1.3,/,-15,-4
CC(C)n1nnnc1SCC(=O)N1CCOCC1,0.6,0%,0.2,1,3.2,/,0,-24
C/C=C/C=C/C(=O)[C@@H]1[C@@H]([C@]2(C)OC(=O)C(C)=C2O)[C@H]2/C(=C(O)/C=C/C=C/C)C(=O)[C@]1(C)C(=O)C2(C)O (stereo not given in full),-2.4,/,1.3,/,1.7,-8.7,-1,-11
COC(=O)c1sccc1NC(=O)/C=C/c1ccc(Cl)cc1Cl,2.8,2%,-7.8,0,-3.5,/,-1,14
CS(=O)(=O)Cc1ccc(C(=O)N(CCc2ccccc2)Cc2ccccc2)cc1,2.5,/,-0.7,-3,8.2,-0.5,1,10
Cc1cccc2cc(CNC3CCCC3)c(Cl)nc12,1.2,/,0.1,-1,-3.9,-1.2,1,0
O=C(CN1CCOCC1)Nc1nc(-c2ccc3c(c2)CCN3S(=O)(=O)c2ccccc2)cs1,13,5%,-0.6,23,0.9,/,0,13
CCC(=O)Nc1ccc(-n2nnnc2SCC(=O)NNC(=O)c2ccco2)cc1,0.5,33%,0.6,11,7.3,-1.9,7,-6
O=C(CSc1nnc(CNC(=O)c2ccccc2)o1)NCc1ccco1,-1.3,-1%,0.2,-10,4.1,0.2,-4,0
COc1ccc2c(c1)C1(Nc3ccccc3C(=O)N1c1ccccc1)C(=O)N2 (stereo not given),-0.6,13%,0.7,-1,-2.1,-65,-6,-7
Fc1ccc(-c2nc3ccncc3[nH]2)cc1,-1.2,26%,-3.4,2,1.8,/,-2,-1
CCOC(=O)N1CCN(C(=O)c2cc3c(=O)n4cccc(C)c4nc3s2)CC1,-2.0,-3%,-0.7,-8,-1.4,0.6,-4,-4
O=C(O)CCCC(=O)Nc1ccn(-c2ccccc2)n1,3.4,?,-0.4,-2,-3.4,/,-11,-3
COc1ccc(N2CCN(Cc3nc(Cc4cccc(F)c4)no3)C(C)C2)cc1 (stereo not given),-3.7,-4%,-0.9,2,4.6,15,3,12
CC(C)(C)C1CCc2c(C(=O)NNC(=O)/C=C/C(=O)O)csc2C1 (stereo not given),-0.9,-4%,0.0,0,5.4,/,0,1
Cn1cnc2c1c(=O)[nH]c(=O)n2Cc1ccccc1,-0.4,/,1.8,-3,0.3,-8.1,18,-3
COc1ccccc1-n1c(SC)nc(O)cc1=O,3.3,-2%,1.5,-3,3.4,1.6,-6,-11
CCCCCCn1c(-c2ccco2)nc2oc3cc(OC)ccc3c(=O)c2c1=O,-2.2,-4%,0.2,13,1.2,/,9,36
Cc1ccc(S(=O)(=O)N(CC(O)CN2C(=O)NC(C)(C)C2=O)c2cccc(C)c2)cc1 (stereo not given),8.6,/,0.6,-10,3.6,0.4,-12,-10
CC(C)(C)c1ccc(-n2ncc3c2CCCC3NC(=O)C2=NNC(=O)CC2)cc1 (stereo not given),4.0,/,1.2,20,-1.2,-1.7,5,-9
O=C(Cn1c(=O)n(-c2cccc(Cl)c2)c(=O)n1CC(=O)N1CCCCC1)N1CCCCC1,-2.3,-1%&-1%,-0.1,1,-2.5,/,-2,-3
CC1CCN(C(=O)C2CCC(CNc3c(N4CCCCC4)c(=O)c3=O)CC2)CC1 (stereo not given),-5.7,-5%,0.6,1,-0.8,4.4,1,3
COC(=O)C/C(C)=N/Nc1ccc(S(=O)(=O)N2CCCC2)cc1[N+](=O)[O-],-0.5,/,1.5,-3,7.0,/,0,-6
CC1CCC/C(=N\NC(=S)NCc2ccccc2)C1 (stereo not given),2.1,5%,?,-6,0.3,/,-3,2
COc1ccc(NC(=O)COC(=O)/C=C/c2cnc3ccccc3n2)cc1,3.1,1%,-1.2,-25,-1.3,0.5,5,9
CCOC(=O)c1c(C)nc2c(C)cccn12,-0.6,14%,0.7,-6,3.3,/,-1,-5
N/C(CC(=O)Nc1ccc(F)c(Cl)c1)=N\OC(=O)c1cccs1,-7.4,/,0.4,0,1.6,-0.2,-24,6
CCS(=O)(=O)c1ccc(O)c(NC(=O)Nc2ccccc2OC)c1,-7.0,-2%,-0.3,/,-2.0,1.0,-3,-10
Cc1cc(-c2ccccc2)nc(N2CCC(C(=O)NC(C)C)CC2)n1,0.4,-3%,0.4,-9,1.8,/,-39,-18
COC(=O)[C@]1(C)N[C@H](CN(C)C(=O)Nc2ccc(C(F)(F)F)cc2)[C@@H]2C(=O)N(C)C(=O)[C@@H]21,i,1%,-0.1,-2,/,1.8,/,/
CCCOc1ccc(C(=O)NC(C)C(=O)O)cc1 (stereo not given),-1.2,2%,-1.2,-3,3.5,/,-4,-13
CCS(=O)(=O)Nc1cccc(C(=O)O)c1,2.1,/,0.7,-2,6.4,/,16,-6
CCNC(=O)c1c(NC(C)=O)sc2c1CCCC2,0.3,-1%,0.5,5,-1.7,/,-2,-9
OC(CNCc1ccc(Cl)cc1)C(F)(F)F (stereo not given),-0.5,2%,0.2,1,-0.6,-1.7,-7,2
O=C(Nc1ccc2c(c1)OCO2)c1cnccn1,3.3,13%,-5.1,-1,-1.9,1.6,3,-21
# Later entries:
SMILES,LANA-H2A inh,Vif A3G,Bfl-1 A1 inh,Beta cell apopt,RanGTP-Impb inh,MLL AF4-AF9 inh,Calb FLC,T cruzi inh
COc1ccc(O)c(C(=O)c2cc(C#N)c(=O)n(-c3ccc(Cl)cc3)c2)c1,2.5,-4%,0.6,7,-1.3,29*,-12,14
O=C(Nc1ccccc1C(=O)NCc1ccco1)c1ccco1,1.1,10%,-0.1,0,1.9,/,3,-1
O=C(OCc1c(F)cccc1Cl)c1cnc2ccccc2n1,0.0,/,0.3,4,2.2,-1.4,-9,-5
Cc1ccccc1OCCC(=O)Nc1ccc2c(C)cc(=O)oc2c1,-15,/,0.1,-4,1.7,-0.4,29,13
CSc1ccccc1NC(=O)CSc1nnnn1-c1ccccc1SC,2.3,7%,-1.1,-1,-1.8,/,14,6
COc1ccccc1NC(=S)Nc1cccc2cnccc12,10,24%,-0.1,-9,7.3,-1.6,3,-34
O=C(COC(=O)c1ncc(Cl)c(Cl)c1Cl)NC1CCS(=O)(=O)C1 (stereo not given),1.0,-1%,0.3,1,1.3,-2.3,-1,-21
O=C(O)c1cc(N/N=C/C=C/c2ccccc2)ccc1Cl,-2.9,1%,-1.7,/,-2.3,1.5,24,-19
CC1CCN(S(=O)(=O)c2ccc3c(c2)c(=O)c(C(=O)NCc2ccco2)cn3C)CC1,1.4,-4%,0.6,-1,2.9,/,4,-6
CCc1cccc(C)c1NC(=O)C1=C(C(=O)O)CCCC1,4.8,10%,-0.1,0,4.7,/,26,-10
O=C(COc1ccc(Br)cc1F)N1CCN(c2ncccn2)CC1,-0.1,/,0.9,-4,2.3,-2.6,24,5
COc1cc(/C=N/Nc2nc(C)cc(C)n2)ccc1OC(=O)c1ccco1,-3.0,/,0.5,3,-3.9,/,-9,2
O=S(=O)(c1ccc(F)cc1)N1CN(Cc2ccco2)c2nc3ccccc3nc21,3.3,26%,-0.5,2,-1.8,/,11,-11
O=C(CSc1ncnc2ccccc12)Nc1ccc(N2CCOCC2)cc1,/,9%,/,/,1.4,/,-1,-10
NC(=O)Cn1cc(/C=N\NS(=O)(=O)c2ccc(Cl)cc2)c2ccccc21,1.3,/,-0.5,-8,-1.0,-1.5,4,-3
S=C(NCCC(c1ccccc1)c1ccccc1)Nc1cccc(Cl)c1,1.3,-1%,-0.1,-1,-1.8,/,-7,44
C(=N\N1CCN(Cc2cccc3ccccc23)CC1)/c1cccnc1,2.3,6%,-0.4,-4,7.4,?,2,-31
COc1ccc(C(=O)NCCS(=O)(=O)NCc2cccnc2)cc1,-4.7,6%,-0.4,-3,-0.1,-0.6,-6,-11
CCC1C(=O)CC(c2ccccc2)NC1c1ccccc1 (stereo not given),8.4,-1%,0.1,-4,1.8,-4.1,-1,-19
CCOC(=O)C1CCN(C(=O)C(C)Oc2ccc(C(=O)c3ccccc3)cc2)CC1 (stereo not given),1.5,-8%,-0.1,0,/,-7.8,/,/
CC1(/[N+]([O-])=C/c2ccccc2F)CCCCC1=O (stereo not given),4.5,3%,0.5,3,0.1,2.2,-3,-4

# Rows are unselected; about 4.3% have a hit in one of these screens.
